UUG fidelity: modulators of yeast start codon fidelity, primary screen, whole organism, S. cerevisiae, single point, plate reader; S. cerevisiae UUG-firefly luciferase reporter, luminescence/redox ratio; activity score, % at 18.7 µM; hit rate 0.13% among 350,000;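 active means replicate mean at a twofold rise or more, about +100% in these data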;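 further: firefly luciferase made from a UUG start codon reports start codon fidelity; reporter light over untreated wells divided by growth signal over untreated wells; some hits fall short of that in this replicate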
HIV Env fusion: inhibitors of HIV-1 Env-driven cell-cell fusion, primary screen, HeLa-JRFL effector, CEM21 target cells, luciferase; inhibition, % at 12.3 µM; hit rate 1.1% among 360,000; AID 651610, 2012;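 active means mean replicate inhibition score of at least 50 and every replicate individually at or above 50; inconclusive means only one of the two criteria met; inactive means mean below 50 and not all replicates reaching 50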;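 further: 0% = plate neutral controls and 100% = maraviroc near 300 nM; one replicate is shown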
MT1-MMP act inh: blockers of MT1-MMP proenzyme processing, primary screen, HT1080 RFP-PRO-GFP cells, GFP/RFP fluorescence. hit rate 0.061% among 360,000. GFP/RFP ratio fluorescence, overnight; percent of plate control window, DMSO zero. Matrix metalloproteinase-14 (Homo sapiens), P50281. GFP/RFP ratio change, % at 20 µM. AID 651647, 2012;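 active means GFP/RFP ratio change of at least 30% with cell ATP level not reduced by more than half and red fluorescence within 50% of control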; further: strong numbers were not always called active
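Test system: HT1080 cells expressing an RFP-PRO-GFP fluorescent reporter construct / Compound dosing: single-point 20 µM compound, 1% DMSO / Schedule: cells overnight before dosing, compound overnight, 37 °C, 5% CO2 / Evaluation: GFP/RFP fluorescence ratio / Control set: DMSO and RFP-L50D-GFP cell wells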
eIF4H inh: human eIF4H binding inhibitors, primary screen, translation initiation inhibitor project, biochemical, uHTS, fluorescence polarization | Eukaryotic translation initiation factor 4H (Homo sapiens), Q15056 | eIF4H fluorescence polarization binding assay | inhibition, % at 35 µM | hit rate 0.94% among 290,000;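 active means 50% or more with normal probe brightness, or confirmed in later tests; inconclusive means above 50% with abnormal brightness, or retests that disagree; inactive means below 50% or failed in later tests; about a fifth of its hits are not listed in these tables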;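 further: calls also rest on retests at 20 µM and on dose response follow-up; 0% = protein and probe with vehicle and 100% = probe without protein; strong numbers were not always called active; many hits fall short of the cut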
PABP polyA inh: PABP poly(A) RNA binding inhibitors, primary screen, biochemical, fluorescence polarization, uHTS; hit rate 1% among 290,000; Polyadenylate-binding protein 1 (Homo sapiens), P11940; inhibition, % at 35 µM; AID 2014, 2009;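 active means 50% or more with normal probe brightness, or confirmed in later tests; inconclusive means above 50% with abnormal brightness, or retests that disagree; inactive means below 50% or failed in later tests; about a fifth of its hits are not listed in these tables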;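 further: calls also rest on retests at 20 µM and on dose response follow-up; controls were probe without protein and protein plus probe with vehicle; some compounds called inactive have numbers as strong as hits; many hits fall short of the cut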
Target sequence (P11940 whole entry, looked up): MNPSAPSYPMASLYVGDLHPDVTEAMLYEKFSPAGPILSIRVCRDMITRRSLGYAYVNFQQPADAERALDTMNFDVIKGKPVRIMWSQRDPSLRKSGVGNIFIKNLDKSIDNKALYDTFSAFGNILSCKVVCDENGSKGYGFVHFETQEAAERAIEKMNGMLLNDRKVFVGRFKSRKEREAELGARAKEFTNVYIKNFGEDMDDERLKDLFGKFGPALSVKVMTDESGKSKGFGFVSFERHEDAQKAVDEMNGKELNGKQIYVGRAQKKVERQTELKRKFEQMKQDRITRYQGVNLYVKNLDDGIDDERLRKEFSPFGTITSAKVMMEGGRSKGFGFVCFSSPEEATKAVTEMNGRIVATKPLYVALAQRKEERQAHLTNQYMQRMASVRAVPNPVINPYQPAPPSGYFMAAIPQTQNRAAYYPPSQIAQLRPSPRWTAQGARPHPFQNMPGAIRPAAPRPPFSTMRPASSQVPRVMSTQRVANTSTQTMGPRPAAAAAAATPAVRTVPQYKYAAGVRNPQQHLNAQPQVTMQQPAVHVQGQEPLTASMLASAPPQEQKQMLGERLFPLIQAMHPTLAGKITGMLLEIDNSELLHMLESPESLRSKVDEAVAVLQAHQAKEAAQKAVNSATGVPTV
CSC inhib: cancer stem cell viability inhibitors, primary screen, luminescence. cancer stem cell-like cells viability. hit rate 1.1% among 300,000. AID 2717, 2010. inhibition, % at 7.5 µM;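 active means mean at 75% or more and at least half the replicates too; inconclusive means mean and replicates disagree; tested in HMLE shEcad cells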;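 further: 0% = median of negative and 100% = median of positive control wells; the first replicate is given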
Rce1 inh: yeast Rce1p protease inhibitors, primary screen, biochemical, fluorescence, cell-free homogeneous; yeast membranes, quenched prenylated peptide cleavage fluorescence; AID 2563, 2010; CAAX prenyl protease 2 (Saccharomyces cerevisiae (strain ATCC 204508 / S288c)), Q03530; hit rate 0.27% among 290,000; calls only;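 active means fall in fluorescence gain of 50% or more versus controls, with final raw signal at or below 3038400; inconclusive means same 50% fall but final raw signal above 3038400; inactive means fall in fluorescence gain under 50%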;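 further: plate controls were neutral control wells for no effect and wells lacking membranes for full effect; tested at 10 µM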
eIF4H inh retest: recorded beside eIF4H inh, whose call it bears; inhibition, %; compound at 20 µM; confirmation average;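 mean of two retest wells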
PABP polyA inh retest: further read-out of PABP polyA inh, marked with its call; inhibition, %; compound at 20 µM; confirmation repeats;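 mean of two retest wells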
MT1-MMP act inh RFP: further read-out of MT1-MMP act inh, marked with its call; RFP signal change, %; measured here: RFP expression control read;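 0 = vehicle wells; hits needed this value within 50% of zero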
An asterisk follows results filed as active; i = inactive; ? = inconclusive; . = not tested or not shown; & = joins results of further samples.

SMILES	UUG fidelity	HIV Env fusion	MT1-MMP act inh	MT1-MMP act inh RFP	eIF4H inh	PABP polyA inh	CSC inhib	Rce1 inh	others
CC[n+]1c(/C=C/c2ccc(OC(C)=O)c(OC)c2)ccc2ccccc21	7.3	-20.7	0.3	-6.3	3.9	54.8	0.1	i	eIF4H inh retest=0.1;PABP polyA inh retest=2.7
O=C1C(=O)N(CC2CCCO2)C(c2ccco2)/C1=C(/O)c1ccc(F)cc1 (stereo unspecified)	.	8.2	-1.3	2.0	-2.4	23.4	7.3	i
COC(=O)CCc1c(COC(C)=O)[nH]c(C(=O)OCc2ccccc2)c1C	-11.5	-30.1	2.8	2.1	1.9	0.4	-13.8	i
Cc1c(NC(=O)CCC2CCCCC2)cc(C(=O)N2CCOCC2)cc1[N+](=O)[O-]	.	7.7	.	.	3.5	0.6	-6.0	i
Cc1ccc2c(Cl)c(C(=O)NC3CC3)sc2c1	-20.7	-52.8	1.0	3.1	-13.6	-2.5	-13.5	i
O=C(NCCN1CCN(C(=O)c2ccccc2Cl)CC1)C(=O)NCc1ccccc1	3.6	8.9	0.6	2.2	-2.2	-0.4	.	i
CC(NC(=O)Cc1ccc([N+](=O)[O-])cc1)c1ccc2c(c1)OCO2 (stereo unspecified)	.	1.5	-2.1	-2.9	-1.4	10.7	-0.3	i
CCc1ccc(CN(C)Cc2nc(-c3cccc(Cl)c3)no2)nc1	-21.4	0.4	-2.1	5.4	-2.3	-4.8	-1.3	i
O=S(=O)(Nc1nc2ccccc2nc1Nc1ccc2c(c1)OCO2)c1ccccc1	-16.6	.	-6.6	-17.8	6.9	0.6	.	i
CN(CC(=O)Nc1ccc(F)cc1)c1ccc(S(=O)(=O)N2CCCCC2)cc1[N+](=O)[O-]	9.5	21.7	2.7	-9.2	-2.5	-11.7	-1.2	i
O=C(CSc1n[nH]c(-c2cccnc2)n1)Nc1ccccc1[N+](=O)[O-]	-9.2	-4.1	-3.3	-2.2	-6.8	7.3	-3.2	.
C=CCn1c(P(C)(=O)O)nc2ccccc21	-18.4	15.8	0.5&-2.3	-2.7&-0.4	1.5&-13.1	1.8&-4.4	-8.6&-1.4	i
Cc1c(Cl)cccc1NC(=O)c1cc(S(=O)(=O)N2CCOCC2)cn1C	3.9	-22.8	-2.6	-0.4	-0.6	-1.0	5.2	i
CC1CCCCC1NC(=O)c1ccc(S(=O)(=O)NCc2ccco2)cc1 (stereo unspecified)	-7.9	10.5	1.0	-1.0	0.9	-3.1	-10.4	i
CCCc1nnc(NC(=O)CCC(=O)NCc2ccccc2OC)s1	-8.6	.	9.7	3.8	4.5	0.4	-15.7	i
CC(C)CCC(CCNCc1ccccn1)c1ccc2c(c1)OCO2 (stereo unspecified)	-17.0	8.5	.	.	-10.3	2.8	3.4	i
CC(C)CN1C2CCCC1CC(NC(=S)NCc1ccco1)C2 (stereo unspecified)	.	-4.3	0.3	3.0	-1.4	16.9	3.7	i
Cc1ccc(NC(=O)CSc2n[nH]c(-c3cccnc3)n2)c(Br)c1	-6.9	-1.3	-0.9	2.2	3.9	-3.5	3.7	i
COc1ccccc1NC(=O)NCCN1CCCCC1	-10.0	9.3	-1.3	2.1	-1.8	-8.4	-2.7	i
COCCNC(=O)C(c1ccc(F)cc1)N(Cc1cccs1)C(=O)CCC(=O)Nc1ccccn1 (stereo unspecified)	0.3	3.5	-2.7	2.3	6.7	1.8	-7.0	i

Of the compounds above, these contain a halogen.
SMILES	UUG fidelity	HIV Env fusion	MT1-MMP act inh	MT1-MMP act inh RFP	eIF4H inh	PABP polyA inh	CSC inhib	Rce1 inh	others
O=C1C(=O)N(CC2CCCO2)C(c2ccco2)/C1=C(/O)c1ccc(F)cc1 (stereo unspecified)	.	8.2	-1.3	2.0	-2.4	23.4	7.3	i
Cc1ccc2c(Cl)c(C(=O)NC3CC3)sc2c1	-20.7	-52.8	1.0	3.1	-13.6	-2.5	-13.5	i
O=C(NCCN1CCN(C(=O)c2ccccc2Cl)CC1)C(=O)NCc1ccccc1	3.6	8.9	0.6	2.2	-2.2	-0.4	.	i
CCc1ccc(CN(C)Cc2nc(-c3cccc(Cl)c3)no2)nc1	-21.4	0.4	-2.1	5.4	-2.3	-4.8	-1.3	i
CN(CC(=O)Nc1ccc(F)cc1)c1ccc(S(=O)(=O)N2CCCCC2)cc1[N+](=O)[O-]	9.5	21.7	2.7	-9.2	-2.5	-11.7	-1.2	i
Cc1c(Cl)cccc1NC(=O)c1cc(S(=O)(=O)N2CCOCC2)cn1C	3.9	-22.8	-2.6	-0.4	-0.6	-1.0	5.2	i
Cc1ccc(NC(=O)CSc2n[nH]c(-c3cccnc3)n2)c(Br)c1	-6.9	-1.3	-0.9	2.2	3.9	-3.5	3.7	i
COCCNC(=O)C(c1ccc(F)cc1)N(Cc1cccs1)C(=O)CCC(=O)Nc1ccccn1 (stereo unspecified)	0.3	3.5	-2.7	2.3	6.7	1.8	-7.0	i

(continued)
SMILES	UUG fidelity	HIV Env fusion	MT1-MMP act inh	MT1-MMP act inh RFP	eIF4H inh	PABP polyA inh	CSC inhib	Rce1 inh	others
COc1ccc(N(C(=O)c2ccc(Cl)cc2)C2=CC3CCC(C2)N3C)cc1 (stereo unspecified)	-2.7	.	1.4	0.4	4.2	3.7	.	i
COC(=O)Nc1ncc(CN2C(=O)c3ccccc3C2=O)s1	-9.5	.	-3.2	2.9	-2.5	-0.1	-0.6	i
CCc1nnc(NC(=O)CCS(=O)(=O)c2ccccc2)s1	-16.8	6.0	5.1	4.8	-0.1	5.2	1.3	i
NS(=O)(=O)c1ccc(N2C(=O)C(=O)/C(=C(/O)c3ccccc3)C2c2ccc(Cl)cc2)cc1 (stereo unspecified)	-3.5	23.5	-6.3	-1.3	5.0	11.6	-2.8	i
CSc1nc(C)c(CCOCc2ccc(F)cc2)c(=O)[nH]1	.	34.7	-0.3	0.3	3.4	0.0	-12.0	i
CCCC(=O)Nc1ccc(S(=O)(=O)N2CCOCC2)cc1	-12.3	.	1.7	1.9	-1.2	-13.7	-11.1	i
COc1ccc(NC(=O)c2cc(C)nc3ccccc23)cc1S(=O)(=O)Nc1ccccc1Cl	15.9	-10.7	-2.4	-1.1	2.4	12.4	7.8	i
COc1ccc(/C=C/C2=Nc3ccccc3NC(C)(C)C2)cc1OC	.	-32.6	-2.8	-0.3	-1.4	-2.1	-1.8	i
COCCCN1C(=O)C(O)=C(C(=O)c2ccco2)C1c1cccc(Br)c1 (stereo unspecified)	-23.5	-36.9	5.3	3.9	-2.4	4.0	-7.8	i
CCn1cc(CNC(=O)c2cccc([N+](=O)[O-])c2)c(C)n1	-3.7	0.1	0.0	1.6	-13.7	-4.5	-17.2	i
CCOc1ccc(C(=O)NCCc2cnc[nH]2)cc1OCC	-18.7	12.1	2.2	5.8	-7.8	15.4	-15.3	i
O=C(Cc1cccs1)N(Cc1cccs1)C1(C(=O)NC2CCCC2)CCCCC1	10.0	?	-12.5	-9.0	-10.0	2.1	1.0	i
CC(=O)Nc1ccc(S(=O)(=O)N(C)CC(=O)OCC(=O)c2cc(C)n(-c3ccc4c(c3)OCO4)c2C)cc1	-2.3	-16.6	2.1	3.6	12.8	-13.6	2.5	i
O=S(Cc1ccc(Br)cc1)Cc1nnc(SCc2ccc(Br)cc2)n1-c1ccccc1 (stereo unspecified)	.	38.5	-4.3	-16.9	5.6	6.8	-8.2	i
CCc1nn(CC(=O)NCCCN2CCCC2=O)c(=O)c2cc3sccc3n12	-18.1	0.0	2.3	-3.5	-6.4	7.4	3.3	i
CCOC(=O)Cc1ccc(NC(=O)c2ccc(C(C)(C)C)cc2)cc1	-4.0	.	-6.9	-12.3	2.8	-11.9	46.7	i
Cc1ccc(C(=O)CSc2nnc(-c3ccc4[nH]c(C)c(C)c4c3)o2)cc1C	-16.5	-26.2	5.8	3.0	-12.3	-8.4	5.1	i
CC(=O)c1cccc(NC(=O)N2CCCC2C(=O)Nc2cccc(C)c2C)c1 (stereo unspecified)	-7.1	-40.0	2.4	1.2	-7.5	2.1	-13.7	.
CCn1c(O)c(N=N)c2ccccc21	.	-2.8	0.0	4.1	-2.9	32.1	2.3	i
COC(=O)/C=C1/SC(=NC(=O)c2ccccc2)NC1=O	.	18.8	11.2	2.1	-1.1	22.3	6.7	i
Cc1ccc(N2C(=O)C3N=NN(CC(=O)N4N=C(c5ccccc5)CC4c4ccccc4)C3C2=O)cc1 (stereo unspecified)	.	3.0	1.6	4.8	-2.1	-0.6	-1.8	i
CCCCCN(C(=O)CCC(=O)OCC(=O)N(CC)C1CCCCC1)c1c(N)n(CCCC)c(=O)[nH]c1=O	19.7	15.2	-2.7	1.5	.	.	-8.4	i
COc1ccc(C/C(N)=N/OC(=O)Cc2ccccc2)cc1	-14.1	-49.3	1.6	3.8	-6.0	-5.4	3.9	i
Cc1c(/C=N\NC(=O)c2ccc(F)cc2)cnn1C	.	.	2.5	5.9	2.4	-3.0	-3.4	i
CC(C)(C)[C@H]1CCC(=O)N([C@H](CC#N)Cc2ccccc2)CC1	-6.8	-3.9	2.3	0.0	0.7	4.3	-7.3	i
CC(=O)c1c(C)[nH]c(C(=O)CSc2nnc(C3CCCCC3)n2N)c1C	-2.5	63.5*	9.7	1.6	-6.8	2.1	-25.0	i
COc1ccc(CCC(=O)c2ccc(OC)cc2)cc1	12.9	-4.7	.	.	.	.	-0.7	i
O=C(Nc1ccc([N+](=O)[O-])cc1)Nc1cnccn1	-1.7	17.3	-18.3	-17.0	1.0	-16.2	25.5	i
Cc1sc2nc(CSC(C)C(=O)N3CCOCC3)[nH]c(=O)c2c1C (stereo unspecified)	-19.8	-5.1	0.5	6.4	4.9	8.8	-1.5	i
CCOc1ccc(C(C)=O)cc1N1C(=O)C2C3C=CC(O3)C2C1=O (stereo unspecified)	.	.	-0.2	3.5	-10.7	-6.9	0.1	i
O=C(NS(=O)(=O)c1ccc(NC(=O)C2CCCO2)cc1)c1ccccc1 (stereo unspecified)	-5.0	.	1.6	2.3	5.0	-1.2	-13.6	i
Cc1occc1C(=O)N/N=C/c1c(O)ccc2ccccc12	-18.2	-4.5	-3.7	-5.4	2.1	-0.6	57.4	i
O=C(Nc1ccccc1C(=O)O)c1ccc(NC(=O)C2CC2)cc1	-20.3	14.5	-3.7	-2.0	6.3	19.4	-14.1	i
CC(C)C(=O)NCCc1c[nH]c2ccccc12	-17.7	-14.0	3.3	-2.1	3.3	16.9	-1.3	i
O=C1/C(=C\c2ccc([N+](=O)[O-])cc2)CCc2ccccc21	.	-30.0	6.3	3.2	-0.8	1.9	14.5	.
CCCN(CC(=O)NC(=O)NCc1ccccc1)CC(=O)Nc1ccc(F)c(F)c1F	-12.4	1.1	-2.7	-4.5	.	.	.	.

Screening results: PubChem, several laboratories
